# Screening results as filed in PubChem BioAssay.
# Env fusion inh: blocks HIV Env-driven cell-cell fusion. HeLa-JRFL Env/CEM21 cell fusion, luciferase. inhibition, % at 12.3 µM. 1.1% of 360,000 active;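 active means mean replicate inhibition score of at least 50 and every replicate individually at or above 50; inconclusive means only one of the two criteria met; inactive means mean below 50 and not all replicates reaching 50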;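 further: 0% = plate neutral controls and 100% = maraviroc near 300 nM; one replicate is shown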
# UUG fidelity: modulators of start codon recognition fidelity in yeast. AID 602363. 0.13% of 350,000 active. S. cerevisiae UUG-firefly luciferase reporter, luminescence/redox ratio. activity score, % at 18.7 µM;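 active means replicate mean at a twofold rise or more, about +100% in these data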;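 further: firefly luciferase made from a UUG start codon reports start codon fidelity; reporter light over untreated wells divided by growth signal over untreated wells; some hits fall short of that in this replicate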
# Numbers without * were called inactive; ? = inconclusive; [ ] = remark or other dose.
SMILES	Env fusion inh	UUG fidelity
C[C@@H]1CN([C@H](C)CO)C(=O)c2cc(C3=CCCCC3)cnc2O[C@H]1CN(C)C(=O)Cc1ccncc1	-10.1[16.7 µM]	-14.2
O=C(C[C@H]1C=C[C@H](NS(=O)(=O)c2ccc(F)cc2)[C@@H](CO)O1)NCc1ccc(Cl)c(Cl)c1	1.1[16.7 µM]	-9.0
CC(C)CC#Cc1cnc2c(c1)C(=O)N([C@@H](C)CO)C[C@H](C)[C@@H](CN(C)C(=O)Nc1cccc(F)c1)O2	13.2[16.7 µM]	14.4
O=C(C[C@@H]1C[C@@H]2c3cc(NC(=O)Nc4ccc(C(F)(F)F)cc4)ccc3O[C@@H]2[C@@H](CO)O1)NC1CCCCC1	?	-1.8
COc1ccc(NC(=O)N(C)C[C@@H]2Oc3ncc(-c4ccc(C#N)cc4)cc3C(=O)N([C@@H](C)CO)C[C@@H]2C)cc1	5.4[16.7 µM]	10.1
Nc1ncnc2c1ncn2[C@@H]1O[C@H](C(=O)NCCCN2CCCC2=O)[C@@H](O)[C@H]1O	-1.1	-12.7
O=C(C[C@@H]1CC[C@H](NC(=O)C2CCOCC2)[C@@H](CO)O1)NCC1CCCCC1	11.6[16.7 µM]	-16.2
C[C@@H]1CCCCO[C@@H](CN(C)C(=O)NC2CCCCC2)[C@@H](C)CN([C@@H](C)CO)C(=O)c2cc(NC(=O)CCC(F)(F)F)ccc2O1	?	4.8
O=C(C[C@@H]1CC[C@H]2NC[C@@H](O)COC[C@@H]2O1)NC1Cc2ccccc2C1	-2.5[16.7 µM]	-12.2
O=C(C[C@@H]1C[C@@H]2c3cc(NC(=O)Nc4ccccc4)ccc3O[C@@H]2[C@@H](CO)O1)NC1CCCC1	14.0[16.7 µM]	-4.7
COc1ccc(NC(=O)Nc2ccc3c(c2)C(=O)N([C@@H](C)CO)C[C@@H](C)[C@@H](CN(C)C(=O)Nc2ccccc2)OCCCC[C@H](C)O3)cc1	10.6[16.7 µM]	5.7
CCCNC(=O)C[C@H]1CC[C@@H]2[C@@H](COc3ccc(NC(=O)c4cccc(F)c4)cc3C(=O)N2C)O1	13.4[16.7 µM]	0.6
CN1C(=O)c2cc(NC(=O)c3cccs3)ccc2OC[C@@H]2O[C@H](CC(=O)NCC(F)(F)F)CC[C@@H]21	10.5[16.7 µM]	19.5
CCCN1C[C@@H](C)[C@@H](OC)CN(C)C(=O)c2ccc(NS(=O)(=O)c3ccccc3)cc2OC[C@@H]1C	9.9[16.7 µM]	-4.5
COc1ccc(NC(=O)N(C)C[C@@H]2OCCCC[C@@H](C)Oc3ccc(NS(=O)(=O)c4ccc(C)cc4)cc3C(=O)N([C@H](C)CO)C[C@H]2C)cc1	-228.9[16.7 µM]	30.3
CN(C)C(=O)C[C@H]1C[C@H]2c3cc(NS(C)(=O)=O)ccc3O[C@H]2[C@H](CO)O1	5.5[16.7 µM]	-12.9
COc1cccc(S(=O)(=O)N[C@H]2C=C[C@@H](CC(=O)NCc3ccncc3)O[C@@H]2CO)c1	16.4[16.7 µM]	-6.3
Cc1ccc(S(=O)(=O)Nc2ccc3c(c2)C(=O)N([C@H](C)CO)C[C@@H](C)[C@@H](CN(C)C(=O)Cc2ccccc2)OCCCC[C@H](C)O3)cc1	-25.6[16.7 µM]	9.6
COc1ccc(C#Cc2cnc3c(c2)C(=O)N([C@H](C)CO)C[C@H](C)[C@H](CN(C)C(=O)NC(C)C)O3)cc1OC	-12.1[16.7 µM]	13.8
C[C@@H]1CN([C@H](C)CO)C(=O)c2cc(C#C[C@@H](C)O)cnc2O[C@@H]1CN(C)Cc1ccc(-c2ccccc2)cc1	-11.3[16.7 µM]	6.6
C[C@@H]1CN([C@@H](C)CO)C(=O)c2cc(C#Cc3ccccc3F)cnc2O[C@H]1CN(C)S(C)(=O)=O	-1.3[16.7 µM]	-5.8
CCCC#Cc1ccc2c(c1)O[C@H](CN(C)Cc1ccc3c(c1)OCO3)[C@H](C)CN([C@H](C)CO)S2(=O)=O	55.7*[16.7 µM]	-30.9
C[C@H](CO)N1C[C@H](C)[C@H](CN(C)C(=O)Nc2cccc3ccccc23)Oc2ccc(NC(=O)CCCCCC(=O)Nc3ccccc3N)cc2CC1=O	36.2[16.7 µM]	-8.8
CCC(=O)N(C)C[C@@H]1Oc2ncc(-c3cccc(OC)c3)cc2C(=O)N([C@H](C)CO)C[C@H]1C	-17.5[16.7 µM]	-4.8
COCC#Cc1ccc2c(c1)O[C@@H](CN(C)C(=O)c1ccccc1)[C@H](C)CN([C@H](C)CO)S2(=O)=O	-6.5[16.7 µM]	4.9
C[C@@H]1CN([C@@H](C)CO)C(=O)c2cccc(NC(=O)Nc3ccc4c(c3)OCO4)c2O[C@@H]1CN(C)Cc1ccc(C(=O)O)cc1	-14.9[16.7 µM]	-1.4
C[C@@H]1CN([C@H](C)CO)C(=O)c2cc(NC(=O)CCC(F)(F)F)ccc2O[C@@H](C)CCCCO[C@@H]1CN(C)C(=O)NC1CCCCC1	-0.4[16.7 µM]	6.2
O=C(O)C[C@H]1C[C@@H]2c3cc(NC(=O)Nc4ccccc4F)ccc3O[C@@H]2[C@H](CO)O1	2.5[16.7 µM]	-14.9
CNC[C@H]1Oc2cc(C#CC(C)(C)O)ccc2S(=O)(=O)N([C@@H](C)CO)C[C@@H]1C	-11.0[16.7 µM]	-23.9
Cc1noc(C)c1NC(=O)N(C)C[C@H]1OCCCC[C@H](C)Oc2ccc(NS(=O)(=O)c3ccc(Cl)cc3)cc2C(=O)N([C@@H](C)CO)C[C@H]1C	-70.5[16.7 µM]	10.4
CCCNC(=O)N(C)C[C@@H]1Oc2ncc(/C=C/c3ccccc3)cc2C(=O)N([C@H](C)CO)C[C@H]1C	-11.8[16.7 µM]	8.6
C[C@H](CO)N1C[C@H](C)[C@H](CN(C)C(=O)c2cccc(F)c2)Oc2ncc(-c3ccncc3)cc2C1=O	-2.7[16.7 µM]	10.3
C[C@@H]1CN([C@@H](C)CO)C(=O)c2cc(NC(=O)Cc3ccccc3)ccc2O[C@@H](C)CCCCO[C@H]1CN(C)C(=O)c1ccncc1	-4.1[16.7 µM]	-6.3
C[C@H](CO)N1C[C@H](C)[C@@H](CN(C)C(=O)c2cnccn2)Oc2ncc(C#Cc3ccccn3)cc2C1=O	-30.2[16.7 µM]	2.4
C[C@@H]1CN([C@@H](C)CO)C(=O)c2cc(-c3cncnc3)cnc2O[C@H]1CN(C)Cc1cncnc1	-315.3[16.7 µM]	-10.7
C[C@H]1CN([C@@H](C)CO)C(=O)c2cc(NC(=O)CCC(F)(F)F)ccc2O[C@@H]1CN(C)S(C)(=O)=O	1.8[16.7 µM]	-17.2
C[C@@H]1CN([C@H](C)CO)C(=O)c2cc(NS(C)(=O)=O)ccc2O[C@@H](C)CCCCO[C@@H]1CN(C)S(=O)(=O)c1ccc(Cl)cc1	-17.2[16.7 µM]	18.8
CN(C)C(=O)C[C@@H]1CC[C@@H]2[C@@H](COc3ccc(NC(=O)c4ccc(F)c(F)c4)cc3C(=O)N2C)O1	9.3[16.7 µM]	17.4
C[C@@H]1CCCCO[C@@H](CN(C)C(=O)C2CCCCC2)[C@@H](C)CN([C@@H](C)CO)C(=O)c2cc(NC(=O)Nc3cccc4ccccc34)ccc2O1	-9.7[16.7 µM]	-15.9
C[C@@H]1CCCCO[C@H](CN(C)C(=O)Nc2ccc3c(c2)OCO3)[C@H](C)CN([C@@H](C)CO)C(=O)c2cc(NC(=O)c3ccncc3)ccc2O1	14.8[16.7 µM]	-2.6
COc1ccc(S(=O)(=O)N(C)C[C@H]2OCCCC[C@H](C)Oc3ccc(NC(=O)C4CCCCC4)cc3C(=O)N([C@H](C)CO)C[C@H]2C)cc1	-23.1[16.7 µM]	0.0
O=C(C[C@@H]1CC[C@@H]2[C@H](COC[C@@H](O)CN2C(=O)Nc2cc(Cl)cc(Cl)c2)O1)N1CCOCC1	-5.8[16.7 µM]	-4.5
COc1ccc(S(=O)(=O)Nc2cccc3c2O[C@@H](CN(C)S(=O)(=O)c2ccc(Cl)cc2)[C@H](C)CN([C@H](C)CO)C3=O)cc1	-14.5[16.7 µM]	-9.8
Cc1ccc(-c2ccc3c(c2)O[C@@H](CN(C)S(C)(=O)=O)[C@@H](C)CN([C@@H](C)CO)S3(=O)=O)cc1	-7.3[16.7 µM]	4.7
CC(=O)N(C)C[C@@H]1Oc2cc(C#Cc3ccccc3F)ccc2S(=O)(=O)N([C@@H](C)CO)C[C@H]1C	14.9[16.7 µM]	14.5

# A few values from the results shown:
# UUG fidelity result of `C[C@H](CO)N1C[C@H](C)[C@@H](CN(C)C(=O)c2cnccn2)Oc2ncc(C#Cc3ccccn3)cc2C1=O` is entered as 2.4
# UUG fidelity result of `Cc1ccc(-c2ccc3c(c2)O[C@@H](CN(C)S(C)(=O)=O)[C@@H](C)CN([C@@H](C)CO)S3(=O)=O)cc1` is entered as 4.7
# Env fusion inh result of `C[C@@H]1CN([C@H](C)CO)C(=O)c2cc(NS(C)(=O)=O)ccc2O[C@@H](C)CCCCO[C@@H]1CN(C)S(=O)(=O)c1ccc(Cl)cc1` is entered as -17.2[16.7 µM]

# The list goes on.
SMILES	Env fusion inh	UUG fidelity
C[C@H](CO)N1C[C@H](C)[C@@H](CN(C)C)Oc2cc(/C=C/c3ccccc3)ccc2S1(=O)=O	2.1[16.7 µM]	7.6
C[C@H]1CN([C@@H](C)CO)C(=O)Cc2cc(NC(=O)Nc3ccc4c(c3)OCO4)ccc2O[C@H]1CN(C)C(=O)Nc1ccc(F)cc1	10.7[16.7 µM]	6.3
C[C@@H]1CN([C@H](C)CO)C(=O)Cc2cc(NS(=O)(=O)c3ccc(Cl)cc3)ccc2O[C@H]1CN(C)CC1CCCCC1	25.1[16.7 µM]	15.1
O=C(C[C@@H]1CC[C@H]2[C@@H](COC[C@H](O)CN2CC2CCCCC2)O1)NCc1ccc(F)cc1	3.6[16.7 µM]	22.7
C[C@H]1CN([C@@H](C)CO)C(=O)c2cc(C#CCN(C)C)cnc2O[C@@H]1CN(C)C(=O)Nc1cccc(F)c1	-2.5[16.7 µM]	25.8
N#C[C@H]1[C@@H](c2ccc(-c3ccc(F)cc3)cc2)[C@H](CO)N1C(=O)Cc1ccccc1	19.8[16.7 µM]	-4.3
CC(=O)N(C)C[C@@H]1Oc2ncc(C#C[C@@H](C)O)cc2C(=O)N([C@@H](C)CO)C[C@@H]1C	-14.6[16.7 µM]	10.4
C[C@@H]1CN([C@@H](C)CO)S(=O)(=O)c2ccc(-c3cccc(C(=O)N(C)C)c3)cc2O[C@H]1CN(C)C	-4.0[16.7 µM]	-10.5
CCCN(C)C[C@H]1OCCCC[C@@H](C)Oc2ccc(NS(=O)(=O)c3ccc(F)cc3)cc2C(=O)N([C@@H](C)CO)C[C@H]1C	-17.7[16.7 µM]	14.7
C[C@H](CO)N1C[C@H](C)[C@H](CN(C)S(C)(=O)=O)Oc2c(NS(C)(=O)=O)cccc2C1=O	-18.1[16.7 µM]	-13.8
COc1ccc(-c2cnc3c(c2)C(=O)N([C@H](C)CO)C[C@H](C)[C@@H](CN(C)S(C)(=O)=O)O3)cc1	-26.4[16.7 µM]	10.7
C[C@@H]1CN([C@@H](C)CO)C(=O)c2cc(NS(=O)(=O)c3cn(C)cn3)ccc2O[C@@H]1CN(C)CC1CCCCC1	17.2[16.7 µM]	-4.7
CC(C)NC(=O)N[C@@H]1CC[C@@H](CCNS(=O)(=O)c2ccc(Cl)cc2)O[C@@H]1CO	-12.9[16.7 µM]	-0.7
COc1ccc(S(=O)(=O)Nc2ccc3c(c2)OC[C@H](C)NC[C@@H](C)[C@@H](OC)CN(C)C3=O)cc1	-14.7[16.7 µM]	7.3
COc1ccc(CN(C)C[C@@H]2OCCCC[C@H](C)Oc3ccc(NC(=O)Cc4ccccc4)cc3C(=O)N([C@H](C)CO)C[C@H]2C)cc1	-0.3[16.7 µM]	35.3
CC(C)CC#Cc1cnc2c(c1)C(=O)N([C@H](C)CO)C[C@@H](C)[C@H](CN(C)Cc1ccc3c(c1)OCO3)O2	5.8[16.7 µM]	-2.3
C[C@@H]1CN([C@@H](C)CO)C(=O)c2cc(NC(=O)Cc3ccccc3)ccc2O[C@@H](C)CCCCO[C@@H]1CN(C)C(=O)Cc1ccccc1	-3.7[16.7 µM]	18.5
CCCCNC(=O)C(COCc1ccccc1)OC(=O)c1ccccc1 (stereo not drawn)	-8.2[16.7 µM]	5.3
C[C@H]1CN([C@@H](C)CO)C(=O)Cc2cc(NC(=O)Cn3cnnn3)ccc2O[C@H]1CN(C)Cc1ccc(C(=O)O)cc1	-4.9[16.7 µM]	-7.3
C[C@@H]1CCCCO[C@H](CN(C)S(=O)(=O)c2cn(C)cn2)[C@@H](C)CN([C@@H](C)CO)C(=O)c2cc(NC(=O)c3ccncc3)ccc2O1	7.4[16.7 µM]	-6.5
CC(C)NC(=O)N[C@@H]1CC[C@@H](CC(=O)N2CCCCC2)O[C@H]1CO	17.7[16.7 µM]	-11.1
COc1ccc(S(=O)(=O)Nc2ccc3c(c2)C(=O)N([C@H](C)CO)C[C@@H](C)[C@H](CN(C)CC2CCCCC2)OCCCC[C@@H](C)O3)cc1	-63.3[16.7 µM]	25.1
C[C@H](CO)N1C[C@H](C)[C@@H](CN(C)Cc2ccc(C(F)(F)F)cc2)OCCCC[C@H](C)Oc2ccc(NC(=O)C3CCCCC3)cc2C1=O	18.7[16.7 µM]	21.7
C[C@@H]1CN([C@@H](C)CO)C(=O)c2cccc(NC(=O)c3ccncc3)c2O[C@@H]1CN(C)S(=O)(=O)c1cccs1	3.4[16.7 µM]	-9.9
COc1cccc(S(=O)(=O)N[C@H]2CC[C@@H](CC(=O)NCc3ccccc3)O[C@H]2CO)c1	0.1[16.7 µM]	-5.8

# Not all compounds are listed; count on the stated rates, not on these rows.
